# KCNQ2 block: KCNQ2 potassium channel inhibitors, primary screen, cell-based, CHO-K1, FluxOR thallium flux, B-score (AID 2156). Potassium voltage-gated channel subfamily KQT member 2 (Rattus norvegicus), O88943. 1.1% of 310,000 active. B-score at 10 µM. 20 min; active compounds read low; only compounds with negative scores are shown here; some inactives read as strong as hits;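 active = fluorescence ratio B-score at most minus 3 library SDs, with starting brightness B-score within 2 library SDs, cut at about -5.5 in these data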
# Target sequence (O88943 whole entry, looked up): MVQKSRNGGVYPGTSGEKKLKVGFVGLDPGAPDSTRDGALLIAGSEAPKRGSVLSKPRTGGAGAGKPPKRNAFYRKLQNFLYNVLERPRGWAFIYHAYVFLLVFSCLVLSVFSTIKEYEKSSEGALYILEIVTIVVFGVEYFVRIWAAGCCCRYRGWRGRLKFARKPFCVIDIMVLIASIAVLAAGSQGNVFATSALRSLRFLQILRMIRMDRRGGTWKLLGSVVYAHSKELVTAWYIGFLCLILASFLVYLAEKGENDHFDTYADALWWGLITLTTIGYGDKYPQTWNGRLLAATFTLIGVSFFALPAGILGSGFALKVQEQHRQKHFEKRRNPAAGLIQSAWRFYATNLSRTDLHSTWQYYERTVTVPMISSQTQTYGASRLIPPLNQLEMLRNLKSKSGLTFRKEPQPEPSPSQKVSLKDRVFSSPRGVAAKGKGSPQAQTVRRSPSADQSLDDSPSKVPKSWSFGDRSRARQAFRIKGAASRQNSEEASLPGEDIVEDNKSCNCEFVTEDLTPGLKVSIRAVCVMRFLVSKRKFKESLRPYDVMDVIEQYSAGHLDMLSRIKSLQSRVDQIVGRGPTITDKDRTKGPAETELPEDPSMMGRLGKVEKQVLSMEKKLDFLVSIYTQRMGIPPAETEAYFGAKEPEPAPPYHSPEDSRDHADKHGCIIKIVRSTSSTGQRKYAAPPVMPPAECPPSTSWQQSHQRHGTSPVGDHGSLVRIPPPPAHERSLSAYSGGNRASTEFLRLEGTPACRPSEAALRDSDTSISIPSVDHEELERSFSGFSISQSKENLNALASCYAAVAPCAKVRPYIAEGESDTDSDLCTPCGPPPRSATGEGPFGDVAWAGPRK
# KCNQ2 block baseline: second read-out of KCNQ2 block, no call of its own (marks repeat the call); B-score; measured here: initial fluorescence intensity artifact check;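 brightness before thallium and not channel activity; 0 = typical well and far values either way flag optical interference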
# Starred values were filed as active, the others as inactive; i = inactive.
# The line under a structure holds: KCNQ2 block | KCNQ2 block baseline
- C[C@H](NC(=O)[C@H]1N2C(=O)c3ccccc3C2SC1(C)C)C(=O)N1CCN(C)CC1 (stereo not given in full)
    i | -0.12
- Cc1nn(-c2ccc(N3CCCCC3)nn2)c(C)c1CCC(=O)Nc1ccc(F)c(F)c1
    i | -1.4
- O=C(COc1ccc(S(=O)(=O)NC2CCCC2)cc1)N1CCCCC1
    i | -1.1
- FC(F)(F)c1ccc(C2NCCc3sccc32)cc1 (stereo not given)
    i | -0.19
- COCCNC(=S)N(CCCN(C)C)Cc1cc2cc3c(cc2[nH]c1=O)OCCO3
    i | -1.8
- Cc1cccc(CN2CCN(Cc3cccc(-n4cccn4)c3)CC2CCO)n1 (stereo not given)
    i | -2
- O=C(CCCOc1ccccc1)Nc1ccc(Br)cc1
    i | -0.4
- Cc1ccc(-c2nc3c(c(=O)c4ccccc4n3C)c(=O)n2-c2ccccc2)cc1
    i | -1.8
- COc1ccc(N(CC(=O)N2CCN(c3ccc(Cl)cc3)CC2)S(=O)(=O)c2c(C)noc2C)cc1
    i | 0.48
- COc1ccc(/C=N/NC(=O)c2nc(-c3ccccc3)cc(-c3ccccc3)n2)cc1OC
    i | -0.85
- COc1ccc(NC2c3ccccc3C(=O)N2Cc2ccco2)cc1OC (stereo not given)
    i | -2
- O=C(CSc1nnc(Cc2ccccc2)n1Cc1ccco1)NC1CCCC1
    i | 0.05
- COc1ccc(S(=O)(=O)N2CCCC2CNC(=O)C(=O)NCCc2ccccc2)cc1 (stereo not given)
    i | -0.01
- Cc1noc(C)c1COc1ccc(C(=O)OCC(=O)Nc2ccc(C(=O)N(C)C)cc2)cc1
    i | 0.64
- COC(=O)c1sccc1-c1ccc(/C=N/OC(=O)c2cccs2)o1
    i | 0.16
- CC(C)Sc1nc2c(c(=O)[nH]c(=O)n2C)n1CCc1ccccc1
    i | 0.18
- CCOc1ccc(N(CC(=O)NC(C)C)C(=O)CCC(=O)Nc2ccccn2)cc1
    i | -0.87
- C=C(C)COc1ccc2c(C)c(CC(=O)N3C[C@H]4C[C@@H](C3)c3cccc(=O)n3C4)c(=O)oc2c1
    i | -1.6
- Cc1ccc(N=C(NO)c2nonc2N)c(C)c1
    i | -1.1
- O=C(C1CC1)N1CCC(C(O)(c2ccccc2)c2ccccc2)CC1
    i | -0.07

# Sorted by formula weight (lowest first): some entries from above
# The line under a structure holds: KCNQ2 block | KCNQ2 block baseline
- FC(F)(F)c1ccc(C2NCCc3sccc32)cc1 (stereo not given)
    i | -0.19
- C[C@H](NC(=O)[C@H]1N2C(=O)c3ccccc3C2SC1(C)C)C(=O)N1CCN(C)CC1 (stereo not given in full)
    i | -0.12
- C=C(C)COc1ccc2c(C)c(CC(=O)N3C[C@H]4C[C@@H](C3)c3cccc(=O)n3C4)c(=O)oc2c1
    i | -1.6

# (listing goes on)
# The line under a structure holds: KCNQ2 block | KCNQ2 block baseline
- Cc1ccsc1/C=N/NC(=O)CN1CCN(Cc2ccccc2)CC1
    i | 0.09
- COc1cccc(/C=N/N2CCN(c3ccncc3S(=O)(=O)N3CCCCC3)CC2)c1
    i | -0.1
- COC(=O)c1scc(S(=O)(=O)c2ccccc2)c1N
    i | 0.14
- COc1ccc(N(Cc2cc3ccc(C)cc3[nH]c2=O)S(=O)(=O)c2ccccc2)cc1
    i | 1
- O=C(NCc1nnc(SCc2ccc(F)cc2)n1-c1ccccc1)C12CC3CC(CC(C3)C1)C2
    i | -2
- O=C(Nc1ccccc1Cl)N1CCN(c2ccc3nnc(-c4ccccc4)n3n2)CC1
    i | -0.15
- Cc1ccc(-c2cc(C(=O)N3CCOCC3)c3ccccc3n2)cc1
    i | -0.18
- C=C(C)CC(NCCc1ccccc1)c1ccco1 (stereo not given)
    i | -0.9
- COc1ccc(N(CC(=O)Nc2ccc(Cl)cc2)S(=O)(=O)c2c(C)n[nH]c2C)cc1
    i | -1.7
- Cc1c2cnn(CC(=O)O)c(=O)c2c(C)n1Cc1ccccc1
    i | -1
- Cc1[nH]c(=O)[nH]c(=O)c1S(=O)(=O)N1CCCC(C(=O)NCCC2=CCCCC2)C1 (stereo not given)
    i | 0.03
- CCOC(=O)c1c(NC(=O)CSc2ncnc3ccccc23)sc(C(C)=O)c1C
    i | -0.35
- Cc1ccc(N2C(=O)N(c3ccc(C)cc3)C3CS(=O)(=O)CC32)cc1 (stereo not given)
    i | -1
- OC(COC(c1ccccc1)c1ccccc1)CN1CCN(c2cccc(Cl)c2)CC1 (stereo not given)
    i | -2.1
- COc1ccc(C(CC(=O)N2CCOCC2)c2c(OC)cc(OC)c3c(-c4ccccc4)cc(=O)oc23)cc1 (stereo not given)
    i | -0.02
- CCOC(=O)N1CCN(C(=O)CSc2nnc(COc3ccccc3)o2)CC1
    i | 3.3
- O=C(NCc1ccccc1)C(c1ccccc1)N(Cc1ccc2c(c1)OCO2)C(=O)Cc1cccs1 (stereo not given)
    -7* | -0.06*
- Cc1ccccc1OC(=O)CCC(=O)OCCCC(F)(F)C(F)(F)F
    i | 0.01
- O=C1NC(c2ccccc2O)Nc2ccccc21 (stereo not given)
    i | 0.06
- Cn1ccc(/C=N/N=C2/NC(=O)CS2)n1
    i | -0.16
- Cc1ccc(C)c(Cc2c(C)nc3c(C(=O)NCc4ccc5c(c4)OCO5)cnn3c2C)c1
    i | 1.2
- Cc1cc(/C=C2/NC(=O)NC2=O)c(C)n1C
    i | 0.7
- CCN(c1ccccc1)S(=O)(=O)c1cc(C(=O)Nc2ccc(Br)cc2)ccc1F
    -6.2* | -0.32*
- O=c1cc(N2CCc3ccccc32)[nH]c(=O)n1-c1ccc(Br)cc1
    i | 0.24
- O=C(c1ccc(Cl)c(S(=O)(=O)N2CCCCCC2)c1)N1CCOCC1
    i | -1.2
- O=C(Nc1ccccc1)/C(=C/c1ccc2c(c1)OCO2)NC(=O)c1ccco1
    i | -0.19
- Cc1ccc(C)n1-c1cccc(S(=O)(=O)N2CCOCC2)c1
    i | 0.01
- CC(=O)N(C)c1ccc(NS(=O)(=O)c2cccc3nsnc23)cc1
    i | 0.15
- CCCc1cc(=O)oc2cc(OC3CCCCC3=O)ccc12 (stereo not given)
    i | 0.5
- COc1ccc2oc(C(=O)OCC(=O)NCc3ccccc3OC)c(C)c2c1
    i | 0.18
- CC(C)c1cc(C(C)C)c(S(=O)(=O)NNC(=O)c2ccncc2)c(C(C)C)c1
    i | -2.1
- Cc1c(Cl)cccc1NC(=O)COC(=O)c1c2c(nc3ccccc13)CCN(Cc1ccccc1)C2
    i | -0.66
- NS(=O)(=O)c1ccc(NC(=O)COC(=O)CCC2CCCC2)cc1
    i | -0.08
- CCN(CC)CCn1c2c(c(SCC(=O)NCc3ccccc3)nc1=O)CCCC2
    i | -0.22
- CCC(=O)Nc1ccc(C2C(=O)c3ccccc3C2=O)cc1
    i | 0.69
- COc1ccccc1NC(=S)NCc1ccc2c(c1)OCO2
    i | 0.05
- CCOC(=O)CN1C(=O)N(CC(=O)OCC)C(c2ccccc2)(c2ccccc2)C1=O
    i | -0.6
- CCCOC(=O)c1c(N)sc(C(=O)OCC)c1C
    i | 0.25
- Oc1csc(Cc2nc(-c3ccc(-c4ccccc4)cc3)cs2)n1
    i | -1.9
- O=Cc1ccc(OCc2cn3ccccc3n2)cc1
    i | -1

# Compound profiles (already shown). Order of values: KCNQ2 block | KCNQ2 block baseline
# CCN(c1ccccc1)S(=O)(=O)c1cc(C(=O)Nc2ccc(Br)cc2)ccc1F reads -6.2* | -0.32*
# Cc1ccc(C)c(Cc2c(C)nc3c(C(=O)NCc4ccc5c(c4)OCO5)cnn3c2C)c1 reads i | 1.2

# Continued:
# The line under a structure holds: KCNQ2 block | KCNQ2 block baseline
- Cc1cc(C)cc(NC(=O)CN2CCN(c3ncccn3)CC2)c1
    i | -0.95
- COC(=O)c1ccc(C)c(NC(=O)c2ccc(Cl)c([N+](=O)[O-])c2)c1
    i | -0.85
- Cc1cccn2c(=O)c(C=Nc3ccc(Cl)cc3)c(NCCO)nc12
    i | 0.04
- O=C(/C=C/c1ccccc1)N1CCN(CCN2C(=O)c3cccc4cccc(c34)C2=O)CC1
    i | -0.01
- CC1(C)CC(=O)C(C=NCCN2CCN(C(=O)NC34CC5CC(CC(C5)C3)C4)CC2)=C(O)C1
    i | -1.1
- O=C(NC1CCCCCC1)c1ccc2c(=O)n3c(nc2c1)CCCCC3
    i | -2.9
- COCc1cc(C)n(CC(=O)Nc2ccc(Cl)cc2Cl)c(=O)c1C#N
    i | -0.5
- CCOC(=O)c1c(C)[nH]c(C(=O)C(C)OC(=O)c2oc3ccccc3c2COC)c1C (stereo not given)
    i | 1.9
- Cc1ccc(NC2CC(=O)N(Cc3ccccc3)C2=O)cc1 (stereo not given)
    i | 0.01
- C=CCc1ccccc1OCCNCc1ccccc1
    i | -0.89
- COc1ccccc1C1CCN(C(=O)C2CCCCC2)CC1
    i | 1
- COc1cccc(CNC(=O)C2CCCN(c3nn4c(=O)cc(C)nc4s3)C2)c1OC (stereo not given)
    i | 0.26
- CNC(=O)C(=O)N1CCC2(CC1)OCCN2S(=O)(=O)c1ccc(C)cc1
    i | -0.37
- O=C(Cc1ccc(Cl)cc1)Nc1ccc(Cl)cn1
    i | 0.84
- CCOc1ncccc1C(=O)N1CCN(c2cc(Cl)ccc2C)CC1
    i | 0.01
- CCOc1ccc2nc(NC(=O)CS(=O)(=O)c3ccccc3)sc2c1
    i | -0.4
- O=C(O)c1cc(N/N=C/c2ccc3c(c2)OCO3)ccc1Cl
    i | 1.3
- COc1ccc(-n2c(-c3ccc(Br)cc3)c[n+]3c2CCCCC3)cc1
    i | 1.6
- CCOC(=O)c1cc2c(ccn2C)n1Cc1ccc(C#N)cc1
    i | -0.43
- CN(Cc1nccn1C)C(=O)C1CCC(=O)N(Cc2cccc(C(F)(F)F)c2)C1 (stereo not given)
    i | 0.54
- O=C(Cc1ccccc1)NC(C(=O)O)C(O)c1ccc([N+](=O)[O-])cc1 (stereo not given)
    i | 1.9
- Clc1ccc(CSc2nnc(-c3sccc3-n3cccc3)o2)cc1
    i | 1.3
- O=C(CSc1ccc2nnc(-c3cccnc3)n2n1)Nc1ccc(F)cc1
    i | 1.8
- C#CCOc1c(/C=C\c2nc(O)c([N+](=O)[O-])c(=O)[nH]2)cc(Br)cc1OC
    i | -0.01
- COc1ccc(NC(=O)COC(=O)c2ccc(Br)o2)cc1OC
    i | 0.16
- Cc1ccc(CNC(=O)COc2ccc3c(c2)CCC3)cc1
    i | 5.2
- COc1ccc2cc(C(=O)NCc3ccccc3)c(=O)oc2c1
    i | 2.3
- COc1cccc(/C=N/NC(=O)c2cc(-c3cccn3C)n[nH]2)c1
    i | 0.02
- COc1ccc(/C=N/NC(=O)Cn2nc(C)c([N+](=O)[O-])c2C)cc1
    i | -0.06
- Cc1cc(C)cc(NS(=O)(=O)c2ccc(NC(=S)NC(=O)c3cccs3)cc2)c1
    i | -0.8
- COc1ccc(CC(NC(C)=O)C(=O)N2CCN(C(=O)Nc3cccc(Cl)c3)CC2)cc1OC (stereo not given)
    i | 0.52
- CCc1ccc(N/C(N)=N/c2nc(CSc3ncccn3)cc(=O)[nH]2)cc1
    i | -2.1
- O=C(Cc1cccs1)NNC(=S)NC(=O)c1ccc(F)c(F)c1
    i | -0.18
- COc1ccc(-c2nn(-c3ccccc3)cc2/C=C(\C#N)C(N)=O)cc1[N+](=O)[O-]
    i | 0.94
- COc1cccc(NC(=O)CSc2nc3ccccc3c(=O)n2CCCC(=O)N2CCCC2)c1
    i | 0.76
- CC(=O)c1ccc(NC(=O)CSCC(=O)Nc2ccc3ccccc3c2)cc1
    i | 0.68
- O=C(C[C@H]1C(=O)N(Cc2ccccc2)C[C@@H]1Cc1ccccc1)Nc1ccccc1
    i | 0.07
- CCOC(=O)C1CCCN(C(=O)c2ccc3oc(CCc4ccccc4)nc3c2)C1 (stereo not given)
    i | 0.7
- CC1(C)Cc2cccc(OCC(=O)N3CCN(c4ccc([N+](=O)[O-])cc4)CC3)c2O1
    i | 1.1
- Cc1ccc(NC(=O)c2cc(CC(C)C)nc3ccccc23)cc1
    i | -0.75

# Brought forward from above: two compounds, followed by the next part.
# The line under a structure holds: KCNQ2 block | KCNQ2 block baseline
- CC1(C)Cc2cccc(OCC(=O)N3CCN(c4ccc([N+](=O)[O-])cc4)CC3)c2O1
    i | 1.1
- Cc1ccc(NC(=O)c2cc(CC(C)C)nc3ccccc23)cc1
    i | -0.75
- COC(=O)CNC(=O)COC(=O)/C=C/c1ccc(F)cc1
    i | -0.45
- COc1ccc(/C=C(\CC(=O)O)c2nc3ccccc3o2)cc1
    i | 0.04
- Cc1oc(/N=C/c2ccc3c(c2)OCO3)c(C#N)c1C
    i | -1.1
- CCCCNC(=O)CCn1c(=O)c2ccccc2n(Cc2ccccc2C)c1=O
    i | 0.2
- Cc1cc(C)n2c(Br)c(CN3CCCC(C)C3)nc2n1 (stereo not given)
    i | -0.28
- CC(C)Oc1ccc(S(=O)(=O)N2CCCCC2)cc1NC(=O)CN1C(=O)NC(C)(c2ccccc2)C1=O (stereo not given)
    i | 0.12
- Cc1cc(NC(=O)C2C3C(=O)N(CC4CCCO4)C(C(=O)NCc4ccccc4)C34C=CC2(C)O4)no1 (stereo not given)
    i | -0.15
- Cc1ccc2nc(Cl)c(CN(C(=O)c3cnccn3)C3CCCCC3)cc2c1
    i | -0.85
- CCOc1ccc(C(C(=O)NC(C)(C)C)N(CCOC)C(=O)CCC(=O)Nc2nccs2)cc1 (stereo not given)
    i | -1.5
- COc1ccc(/C=C2\SC(=O)N(CC(=O)NC3CCS(=O)(=O)C3)C2=O)cc1 (stereo not given)
    i | 0.22
- Cc1cccc(N2CCN(C(=O)COc3ccc4c(C)cc(=O)oc4c3C)CC2)c1C
    i | -0.17
- CC1(C)CC2CC(C)(CN2C(=O)c2cc(-c3ccc(F)cc3)on2)C1 (stereo not given)
    i | -1.3
- Cc1ccc(C(=O)COC(=O)C(C)N2C(=O)C3C4C=CC(C4)C3C2=O)cc1C (stereo not given)
    i | 3.2
- c1ccc(-c2nc3nonc3c3nc4ccccc4n23)cc1
    i | -1.7
- COc1ccc(NC(=O)C2CCN(S(=O)(=O)c3c(C)nn(C)c3C)CC2)cc1
    i | -1.6

# Only part of the results is shown. The share of hits here may be higher or lower than overall.
